gsp antag: antagonists of gsp mutant (McCune-Albright syndrome); AID 624288; gsp-mutant cells, cAMP HTRF, 30 min; control for the full effect not named in the record; Potency, µM (top dose mostly 76.9 µM), for the others: at the highest dose activity change, negative = inhibition, hits mostly inhibitors; actives 0.4% (n = 340,000); active = falling curve of any shape with a large fitted effect; inconclusive = falling curve, mostly with a smaller effect; inactive = flat or rising curve; cell line not stated here;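 note: intracellular cAMP measured with PDE inhibitor Ro 20-1724 present during compound exposure; potency is the fitted concentration of half-maximal effect; % is set by controls: 0 for no effect and ±100 for the full control effect; nearly all actives have a fitted effect of over 65% in size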
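Cells in G418 medium, seeded 16-24 h, 37C; buffer exchange to DPBS + 1 mM CaCl2, 0.5 mM MgCl2, 0.05% BSA; cpds in DMSO + […] (300 uM stock), 30 min 37C; HTRF cAMP detection.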
PINK1 modulator: modulators of PINK1 expression | PINK1 immunofluorescence, high-content cytometry, 24 h | Potency, µM (top dose mostly 76.6 µM), for the others: top-dose activation (PINK1 increase), usual class: activators | actives 0.2% (n = 410,000); active = well fitted activation curve with a large enough effect; inconclusive = small, poorly fitted or top-dose-only effect; inactive = flat fitted curve, though single readings scatter; cell line not stated here;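 note: potency is the fitted concentration of half-maximal effect; % of control where 0% means no effect; nearly all actives have a fitted effect of over 65% in size; a mitochondrial uncoupler was the plate control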
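PINK1 protein, normally rapidly degraded, was detected by immunofluorescence after 24 hour compound treatment of a stable cell line. Titration data (5 concentrations) came from laser-scanning cytometry, with CCCP-treated wells as controls.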
Menin MLL FP FL: displaces fluorescein MLL peptide from human menin; Fluorescence polarization, fluorescein-MLL peptide displacement from menin; FP activity change, % at 61.4 µM; 290,000 tested, under 10 active; AID 1766; inconclusive = falling polarisation curve, or a change in total fluorescence; inactive = total fluorescence flat and polarisation flat or rising; no compound was filed as active; the % refers to the polarisation; negative = inhibition;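 note: % of control where 0% means no effect; inhibitors lower the polarisation; unlabelled MLL peptide was the positive control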
D2 agonist: human D2 receptor agonism in beta-arrestin assay; DiscoveRx PathHunter D2 beta-arrestin, luminescence, 90 min; 100% = 57 uM dopamine signal; actives 0.084% (n = 360,000); P14416; activation, % (no concentration beside the values); in the data active = activation above about 40%; inconclusive = about 15% to 40%; inactive = below about 15%; note: compound concentration not given in the record; the text of the record calls up to 30% inactive
Target sequence (P14416 whole entry, looked up): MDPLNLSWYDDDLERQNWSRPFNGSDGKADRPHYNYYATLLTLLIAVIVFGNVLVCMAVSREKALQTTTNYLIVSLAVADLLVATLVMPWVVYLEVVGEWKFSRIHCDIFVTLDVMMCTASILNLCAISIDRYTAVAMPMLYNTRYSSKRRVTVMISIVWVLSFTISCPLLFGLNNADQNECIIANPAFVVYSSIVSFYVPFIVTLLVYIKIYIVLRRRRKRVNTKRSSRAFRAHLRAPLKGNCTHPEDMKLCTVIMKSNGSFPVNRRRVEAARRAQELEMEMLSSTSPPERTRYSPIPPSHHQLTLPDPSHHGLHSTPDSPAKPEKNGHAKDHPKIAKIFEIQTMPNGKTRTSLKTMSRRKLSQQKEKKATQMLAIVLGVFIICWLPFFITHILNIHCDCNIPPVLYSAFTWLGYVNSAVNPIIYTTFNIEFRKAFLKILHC
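DiscoveRx PathHunter D2 beta-arrestin cells (2,100/well) attached overnight, then compound-stimulated 90 min at 37 C in HBSS/10 mM HEPES/0.1% Tween-20 buffer; beta-galactosidase complementation read by luminescence after 1 h at ambient temperature. Dopamine 57 uM final (EC100) as control.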
Sfp inh: inhibitors of Bacillus subtilis Sfp phosphopantetheinyl transferase; actives 3.5% (n = 310,000); Potency, µM, for inactives: max response, negative = inhibition, most hits filed as inhibitors; Biochemical Sfp PPTase activity, qHTS; active = well fitted inhibition curve with a large enough effect; inconclusive = small, poorly fitted or top-dose-only effect, or another doubt; inactive = no such curve, though single readings can be large or run the other way;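 note: the enzyme is Sfp with the accession as filed and its product quenches rhodamine fluorescence; potency is the fitted concentration of half-maximal effect; 0% = enzyme reaction without inhibitor and -100% = no enzyme wells; top concentration of the series not given in the record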
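Reaction rates are the 30-min fluorescence difference (ex 525, em 598 nm) in wells containing 15 nM Sfp, 5 uM rhodamine-CoA and 12.5 uM BHQ-2-YbbR at pH 7.6 with 10 mM MgCl2.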
gsp agonist: agonists of gsp mutant (McCune-Albright syndrome); AID 624287; actives 0.13% (n = 340,000); Potency, µM (series often up to 76.9 µM), for inactives: at the highest dose activation (cAMP increase), hits mostly activators; gsp mutant cells, cAMP HTRF, 30 min; control for the full effect not named in the record; active = well fitted activation curve with a large enough effect; inconclusive = small, poorly fitted or top-dose-only effect, or another doubt; inactive = no such curve, though single readings can be large or run the other way; cell line not stated here;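 note: phosphodiesterase inhibitor Ro 20-1724 added with compounds to block cAMP breakdown; potency is the fitted concentration of half-maximal effect; nearly all actives have a fitted effect of over 60% in size; about a fifth of the inactives were tested at one dose only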
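Cells in DMEM/10% FBS with G418 were pretreated with compounds in DMSO plus […] (300 uM stock) for 30 min at 37C. cAMP was measured by HTRF (cAMP-d2 plus anti-cAMP antibody-K) after 30 min at room temperature.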
ClpP mod: qHTS Assay for Activators of ClpP; ATP-dependent Clp protease proteolytic subunit (Bacillus subtilis (strain 168)), P80244; purified B. subtilis ClpP, FRET peptide cleavage, 20 min; Potency, µM (series often up to 57.5 µM), for inactives: at the top dose activity change, negative = active; actives 1.9% (n = 340,000); AID 651965, 2013; active = well fitted falling curve with a large enough effect; inconclusive = small, poorly fitted or top-dose-only effect; inactive = no such curve, though single readings can be large or run the other way; note: potency is the fitted concentration of half-maximal effect; the source files actives as falling curves though it sought activators and does not explain the sign; nearly all actives have a fitted effect of over 65% in size; many hits overshoot -100%
Target sequence (P80244 whole entry, looked up): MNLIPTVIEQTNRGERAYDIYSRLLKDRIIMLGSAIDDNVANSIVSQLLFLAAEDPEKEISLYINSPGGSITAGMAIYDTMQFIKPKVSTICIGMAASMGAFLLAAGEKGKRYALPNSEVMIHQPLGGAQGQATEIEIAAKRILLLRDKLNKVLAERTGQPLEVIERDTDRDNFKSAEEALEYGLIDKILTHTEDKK
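Buffer: 100 mM Tris/HCl pH8, 100 mM KCl, 0.05% low protease BSA, 2.5% glycerol, 0.01% Tween-20. ClpP 10 microg/mL final; 20 min RT; delta FRET normalized to ADEP and DMSO controls.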
* = called active by the depositor; u = inconclusive; x = not tested or not shown; & = joins results of further samples; [ ] = remark or other dose.

smiles	PINK1 modulator	gsp agonist	Sfp inh	ClpP mod	D2 agonist	gsp antag	Menin MLL FP FL
Nc1c(N(CCO)C(=O)C2CCCCC2)c(=O)[nH]c(=O)n1Cc1ccccc1	3.2%	6%	1%	3.8%	-4.4	-2%	u
Cc1cc(C)cc(-n2c(O)c(C=NC3CCS(=O)(=O)C3)c3ccccc3c2=O)c1 (stereo unspecified)	-3.9%[38.3 µM]	-6%	6%	-4.6%	0.7	-7%	0.8
CC[C@H](C)[C@H](NC(=O)OCc1ccccc1)C(=O)OCC(=O)N1CCN(c2ccc(OC)cc2)CC1	2.1%	-45%[inhibitor]	x	-2.6%	5.9	-14%	x
CNC(CC(C)C)C(=O)NC1C(=O)NC(CC(N)=O)C(=O)NC2C(=O)NC3C(=O)NC(C(=O)NC(C(=O)O)c4cc(O)cc(O)c4-c4cc3ccc4O)C(O)c3ccc(c(Cl)c3)Oc3cc2cc(c3OC2OC(CO)C(O)C(O)C2OC2CC(C)(N)C(O)C(C)O2)Oc2ccc(cc2Cl)C1O (stereo unspecified)	-0.6%	x	x	-1.5%	-1.8	-5%	x
c1ccc(N2CCN(c3nc(-c4ccccn4)nc4ccccc34)CC2)cc1	1.9%	13%	-18%	0.8%	-4.9	3%	-0.1
CS(=O)(=O)N(CC(=O)Nc1ccc2c(c1)OCCO2)Cc1ccccc1	4.8%[38.3 µM]	45%	10%	0.4%	2.0	7%	2.8
O=C1c2ccccc2C(=O)N1Cc1nc2ccccc2c(=O)n1CCCN1CCOCC1	4.6%[38.3 µM]	-34%[inhibitor]	7%	1.0%	-2.0	7%	0.5
Cc1cc(C)c(S(C)(=O)=O)c(N(C)NC(=O)c2c(F)cccc2F)n1	-2.4%	u	3%	x	-2.5	9%	-0.4
O=C(CNC(=O)c1ccco1)Nc1ccc(Br)cc1	0.2%	-8%	11%	0.6%	-0.1	0%	-19
CC1(C)CC2CC(C)(CN2C(=O)c2ccc([N+](=O)[O-])cc2[N+](=O)[O-])C1 (stereo unspecified)	1.2%	-10%	4%	-1.2%	-1.9	-14%	-2.0
O=C(COC(=O)CNC(=O)c1ccc(Cl)c([N+](=O)[O-])c1)NNC(=O)c1cccs1	2.2%	11%	x	9.6%	-1.6	-5%	x
CCCNC(=O)Nc1cc(S(=O)(=O)CC)ccc1O	0.0%	-11%	8%	-4.4%	-2.8	7%	5.2
c1ccc2cc(-c3cc4ccccn4c3)ccc2c1	x	-10%	6%	u	-1.0	-3%	4.0
CCCCn1c(N)c(N(CCOC)C(=O)COC(=O)COc2ccc(CC)cc2)c(=O)[nH]c1=O	-2.1%	2%[15.4 µM]	x	x	-1.3	2%	x
O=C(COC(=O)c1nc(Cl)ccc1Cl)NCc1cccs1	2.1%	-2%[15.4 µM]	x	x	-0.7	0%	x
CCOC(=O)C1CCN(Cc2cnc(Oc3ccc(OC)cc3)s2)CC1	1.1%	-31%[inhibitor]	22%	1.3%	u	9%	1.6
Cc1cc(CNC(=O)CC2C(=O)NCCN2Cc2ccccc2C(F)(F)F)nn1C (stereo unspecified)	-1.6%	24%	-7%	-8.3%	-13	9%	-8.4
COc1ccccc1-c1cc(C(F)(F)F)nc(S(C)(=O)=O)n1	-5.1%	4%	0%	-0.6%	-9.8	29%	1.2
CCCCSc1nc(N)nc2c1ncn2C1OC(CO)C(O)C1O (stereo unspecified)	-0.6%	-30%[15.4 µM]	x	-4.7%	2.2	1%	x
O=C(Cn1cccc1)N1CCc2ccccc21	-0.5%[38.3 µM]	-22%	7%	-1.3%	0.2	15%	1.9
c1ccc(C[C@H]2CNCCN2CCCCC2CCCCC2)cc1	-0.6%	x	x	0.3%	-2.8	-1%	x
Cc1oc(-c2cccs2)nc1CN1CCN(C(C)C)C(CCO)C1 (stereo unspecified)	-0.9%	27%	13%	x	-1.0	5%	0.8
CCC(C)(C)NC(=O)CN(Cc1cccs1)C(=O)CNS(=O)(=O)c1ccc(C)cc1	9.8%	3%	11%	0.6%	-0.7	4%	-0.1
CC(C)CN(CC(C)C)C(=O)COc1ccccc1C(N)=O	0.2%	-15%	3%	-2.3%	-5.2	-6%	2.0
Cc1ccc(C)c(N(C(=O)Cn2nnc3ccccc32)C(C(=O)NC(C)(C)C)c2ccsc2)c1 (stereo unspecified)	19%[38.3 µM]	-6%	7%	1.0%	-2.5	-1%	-2.7

smiles	PINK1 modulator	gsp agonist	Sfp inh	ClpP mod	D2 agonist	gsp antag	Menin MLL FP FL
CCCCC(=O)NC(=S)Nc1c(C)cc(Br)cc1C	10%	1%	35µM*	1.2%	-5.6	55%[activator]	-0.5
COc1ccc(Cl)cc1NC(=O)CCN1CCOCC1	0.8%	u	14%	x	-5.6	4%	-4.2
Cc1cc(C)c(NC(=O)Cn2c(=O)c3cccn3c3ccccc32)c(C)c1	0.4%&1.1%	-38%[inhibitor]	-27%	-6.7%&-1.9%	-3.7	3%	x
COc1ccccc1OCCSc1nnc(CNC(=O)c2ccco2)n1C	0.7%	-21%	4%	-1.1%	-3.7	11%	x
CC1(C)CC(=O)CC(=O)/C1=N\Nc1c(Cl)cc(Cl)cc1Cl	0.9%	0%	2%	1.8%	-3.3	3%	0.8
CCc1nc2c(OCCn3cccc3)cccn2c1N(C=O)Cc1ccc(OC)cc1	1.2%	x	x	-1.9%	-2.6	x	x
Cc1c(OCC(=O)Nc2cccnc2)ccc2c3c(c(=O)oc12)CCC3	6.4%	-12%	9%	4.1%	2.4	-8%	x
O=[N+]([O-])c1ccc(NN=Cc2cccc([N+](=O)[O-])c2)cc1	1.3%	-6%	x	x	3.4	-3%	x
Cc1ncoc1C(=O)Nc1ccccc1C(N)=O	-4.0%[38.3 µM]	-35%[inhibitor]	-11%	-1.8%	1.1	2%	-0.6
COCCNC(=O)/C(C#N)=C/c1ccc(OC(=O)c2cccs2)c(OC)c1	3.5%	-4%[15.4 µM]	-3%	x	-2.5	-8%	0.7
N=c1c(C(=O)NCC2CCCO2)cc2c(=O)n3ccccc3nc2n1Cc1ccc(Cl)cc1 (stereo unspecified)	0.2%	3%	7%	4.6%	-3.0	2%	x
Nc1cc(=O)[nH]c(SCC(=O)Nc2nnc(-c3ccccc3)s2)n1	-1.5%	13%[15.4 µM]	-19%	x	1.5	5%	0.8
O=C(OCCCc1cc2ccccc2c(=O)o1)c1ccc2c(c1)OCO2	-1.7%	-7%	x	-7.8%	1.5	-21%	x
Cc1ccccc1-c1nc(N2CCNCC2)c2ccccc2n1	0.9%	x	-3%	x	x	x	-6.3
CCN(CC(=O)Nc1ccccc1OC)C(=O)COc1ccc2ccccc2c1	1.6%	-42%	-16%	-0.9%	-0.7	-20%	1.8
OCC(O)C1OC(Nc2ccc(Br)cc2)C(O)C1O (stereo unspecified)	-0.9%	2%[15.4 µM]	10%	x	0.1	x	2.4
CCCc1nnc(NC(=O)CSc2ncn[nH]2)s1	-3.0%	u	3%	-2.2%	0.4	9%	0.6
Cc1ccc(S(=O)(=O)N2CCOC2CNC(=O)C(=O)NCCCc2ccccc2)cc1 (stereo unspecified)	1.5%	-7%	11%	-3.1%	1.1	2%	x
Cc1cc(C)cc(OCC(=O)OCC(=O)c2c(N)n(C)c(=O)n(C)c2=O)c1	0.0%	-30%	21%	0.6%	-1.6	-10%	3.7
CC(C)(C)NC(=O)C1CC(=O)OC12CCCCC2 (stereo unspecified)	2.0%	9%	12%	2.8%	-1.8	-5%	0.8
CC(=O)NC(CC(=O)Nc1nc(-c2ccc(N(C)S(C)(=O)=O)cc2)cs1)c1ccccc1 (stereo unspecified)	1.8%	12%	12%	x	2.8	-29%	5.9
O=C(NCCOC(=O)c1ccccc1)c1ccc([N+](=O)[O-])cc1	-0.1%	-6%	8%	-1.2%	6.8	-10%	-4.6
CCCCN(Cc1cc2ccccc2[nH]c1=O)C(=O)c1ccccn1	-1.3%	15%	-7%	-19%	-0.8	-1%	-0.8
CCCc1cc(=O)[nH]c(SCC(=O)N2CCCC2=O)n1	1.4%	-26%[15.4 µM]	x	x	1.9	14%	x
CC(=N)C1=C(O)CC(c2ccccc2)CC1=O (stereo unspecified)	3.0%	6%[15.4 µM]	19%	x	0.1	-1%	-4.2

smiles	PINK1 modulator	gsp agonist	Sfp inh	ClpP mod	D2 agonist	gsp antag	Menin MLL FP FL
COc1ccc(CNC(=O)CCS(=O)(=O)c2ccc3c(c2)CCN3C(C)=O)cc1	0.2%	53%	0%	1.3%	-3.4	13%	-0.5
CCCCC1=NN2CCS(=O)(=O)N=C2S1	1.0%	13%[15.4 µM]	11%	x	-7.1	x	2.9
CC(C)(C)n1nnnc1C(c1cccs1)N(Cc1ccc(Cl)cc1)CC1CCCO1 (stereo unspecified)	1.6%	-37%[inhibitor]	9%	-1.9%	-3.6	-3%	0.0
O=C1NC(=O)/C(=C\c2ccc(OCc3cccc([N+](=O)[O-])c3)cc2)N1	1.3%	3%[15.4 µM]	-1%	x	7.8	-1%	-0.2
COc1ccc(CNC(=O)C2Cc3c(-c4ccccc4)ccnc3O2)cc1OC (stereo unspecified)	3.1%	x	x	1.0%	7.2	x	x
COc1ccc(Cl)cc1S(=O)(=O)Nc1cccc(C(=O)O)c1	u	-24%	1%	-3.8%	-2.4	7%	1.5
CCCCNC(=O)N(O)C1N(/N=C/c2ccc(N(C)C)cc2)C(=S)SC1(C)C (stereo unspecified)	-1.1%	-2%[15.4 µM]	12%	x	2.5	0%	-8.8
COc1ccc(N2CCN(S(=O)(=O)CCNC(=O)c3ccc(Br)o3)CC2)cc1	1.3%	4%	16%	-3.0%	0.1	12%	2.1
Cc1ccc(-c2nnc(SCC#CCOC(=O)c3ccco3)o2)cc1	-4.1%	-4%	2%	-1.6%	-2.7	-11%	3.5
O=[N+]([O-])c1ccccc1S(=O)(=O)n1cnc2ccccc21	2.5%	-1%[15.4 µM]	7%	x	-1.4	-13%	0.4

Bioassay records from PubChem BioAssay.
